High-throughput results (PubChem)
Autofluor counter = counter-screen for toxin protease inhibitors: compound fluorescence; compound autofluorescence counterscreen, microsphere flow cytometry; active compounds read high; fluorescence intensity (test concentration not listed); 360,000 compounds, 3.1% hits; AID 624483;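 active = at least 3 SD above the mean of all compounds, about 16000 in these data; inconclusive = too few beads counted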;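 also: 100 nL of 1 mM stock went into each well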
RN4220 kill = kills Staphylococcus aureus RN4220 | S. aureus RN4220 growth, OD600, 16 h | AID 1259311 | 330,000 compounds, 0.33% hits | inhibition, % (concentration not given with the values);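 active = z-score of -3 or lower and OD600 up to 0.18 on both plates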;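 also: plate controls were untreated cells for no effect and reference antibiotic for full effect; stock transfer was 100 nL into about 80 µL; one replicate is shown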
PrP 5UTR inh = inhibition of PrP 5' UTR reporter expression; cell-based PrP 5' UTR mRNA reporter, plate reader; inhibition, % (test concentration not listed); 340,000 compounds, 0.35% hits; AID 488862;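 active = every replicate at 50% or more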;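 also: 0 = median of the neutral control wells; tested in H4 reporter cells; numbers are from one replicate; inactives centre near -14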
ugtP null kill = compounds lethal to S. aureus RN4220 ugtP deletion mutant | OD600 growth, 16 h; some inactives read as strong as hits | growth inhibition, % (concentration not given with the values) | 330,000 compounds, 0.54% hits;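 active = z-score under -3 and OD600 up to 0.15 on both plates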;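 also: plate controls were untreated wells for no effect and antibiotic for full effect; wells of about 80 µL received 100 nL stock; the first replicate is given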
Mtb hypoxia rep = reduces hypoxia-regulated biosensor signal in M. tuberculosis; M. tuberculosis hypoxia-regulated fluorescent reporter, fluorescence; AID 1159583; 300,000 compounds, 0.1% hits; fluorescence inhibition, % (concentration not given with the values);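 active = 35 to 45% if threefold the growth effect, above 45% if 1.5-fold the growth effect; inactive = the rest, general growth blockers included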;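 also: wells of about 50 µL received 100 nL stock; 0% = vehicle wells and 100% = reference inhibitor wells; whole bacteria with a GFP reporter of the hypoxia response; strong numbers were not always called active; many hits fall short of the cut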
BJeLR lethal = BJeLR cell viability loss; BJeLR (HRASV12) viability, CellTiter-Glo ATP luminescence, 48 h; reference of the scale not given here; inhibition, % (no concentration beside the values); 300,000 compounds, 0.17% hits;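 active = replicate mean above 50%; inconclusive = above 50% but judged a plate artefact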;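 also: 50 nL library stock added to about 25 µL; numbers are from one replicate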
Mtb hypoxia rep growth = further read-out of Mtb hypoxia rep, marked with its call; growth inhibition, %; measured here: M. tuberculosis growth (absorbance);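 0% = vehicle and 100% = reference antibiotic; read after six days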
An asterisk follows results filed as active; ? = inconclusive; · = no result given.

SMILES	Autofluor counter	RN4220 kill	PrP 5UTR inh	ugtP null kill	Mtb hypoxia rep	Mtb hypoxia rep growth	BJeLR lethal
COc1ccc(OC)c(C2c3[nH]c4ccccc4c3C[C@H]3C(=O)N(C4CC4)CC(=O)N23)c1 (stereo partly drawn)	3874	2.3	-17	7	13	5	-6
OC1Cc2ccccc2C1Nc1cccc(C(F)(F)F)c1 (stereo not drawn)	3852	5.7	-5	-16	6	7	·
Cn1c(=O)cc(OCCCC(=O)Nc2ccccn2)c2ccccc21	22529*	6.3	-23	-7	13	11	-1
CCc1ccc(OCCNC(=O)OCc2ccccc2)cc1	2067	-2.3	5	18	-3	7	9
COC(=O)C1=C(c2ccc(F)cc2F)CC2CCC1N2C(=O)NCCOc1ccccc1Cl (stereo not drawn)	·	1.0	·	11	-4	2	·
Nc1ccccc1Oc1c(F)c(F)c(Oc2ccccc2N)c(F)c1F	2060	1.4	-4	-1	3	7	2
Cn1c(SCc2ccccc2)nnc1-c1ccncc1	24601*	8.0	-10	-7	9	6	0
CCn1c(SCC(=O)c2ccccc2)nnc1-c1cccs1	9282	16	-60	3	-6	5	4
COc1ccc(-c2nc(S(=O)(=O)c3ccc(C)cc3)c(N3CCCC3)o2)cc1	2973	-0.1	-14	-5	·	·	-6
OC(CN1CCCCC1)c1ccc(Br)cc1 (stereo not drawn)	2944	-0.6	-11	-2	18	6	·
COc1cc(C2NC(=S)NC(C)=C2C(=O)Nc2cc(C)cc(C)c2)ccc1O (stereo not drawn)	4334	2.2	-21	3	9	-2	7
CCOc1ccccc1NC(=O)Cc1coc2cc(C)ccc12	4238	5.7	-21	-11	·	·	-9
CCOc1ncccc1C(=O)Nc1nc(SC)ns1	3437	6.2	-35	4	10	5	-4
Cc1ccc(N=c2oc3cc(O)ccc3cc2C(N)=O)cc1	3598	11	-20	-25	-93	-19	7
O=C(Nc1ccc(S(=O)(=O)Nc2ccc(Cl)cc2)cc1)C1CCCO1 (stereo not drawn)	9617	6.8	-13	-1	4	9	7
COc1ccc(CCNC(=O)CN(c2cc(C)cc(C)c2)S(=O)(=O)c2c(C)noc2C)cc1OC	5827	1.6	0	2	-2	8	-5
CCOC(=O)C(N=Nc1sc(C(=O)OCC)c(C)c1C(=O)OCC)=C(C)O	·	9.7	·	-13	-11	-10	·
CCOC(=O)c1ccccc1NC(=O)CSc1nnc(C)c(=O)[nH]1	2886	4.0	-7	5	10	2	7
Cc1ccc(N2CC(C(=O)Oc3cccc(N4C(=O)CCC4=O)c3)CC2=O)cc1 (stereo not drawn)	21129*	-0.7	-24	1	14	4	6
COc1ccc(OC)c(C=NNC(=O)C(=O)N2CCCC2)c1	·	3.0	·	5	7	8	·
COc1cc(Br)cc(Br)c1OCC(=O)NN=Cc1c(C)n(C)n(-c2ccccc2)c1=O	·	3.7	·	11	-1	6	·
CC1(NC(=O)NCCCCCCNC(=O)NC2(C)CCS(=O)(=O)C2)CCS(=O)(=O)C1 (stereo not drawn)	3631	3.3	-22	5	-6	2	-9
CC(=O)N(C(C)=O)N1C(=O)/C(=C/c2ccc(Cl)cc2)SC1=S	2523	0.1	-10	3	8	7	-8
COc1ccccc1CCC(=O)N1CCC(n2nccc2NC(=O)C2CCOC2)CC1 (stereo not drawn)	?	5.1	-19	9	5	-32	-14
O=C(CCSCc1cccc(Cl)c1)NCCc1ccc(Cl)cc1	2386	-5.4	-23	-14	12	6	5
Cc1cccc(-c2n[nH]c([N+](=O)[O-])n2)c1	8730	-1.2	-16	2	5	4	0
CC(C)C[C@H](CO)Nc1nc(N(C)c2cccc(Cl)c2)c2ncn(C(C)C)c2n1	4006	·	4	·	·	·	-12
Cc1ccc(Cl)cc1N1CCN(S(=O)(=O)c2ccc3[nH]c(=O)c(=O)[nH]c3c2)CC1	1991	-0.3	-8	-34	12	7	-4
CNC1(C(N)=O)CCN(Cc2ccccc2)CC1	4094	1.4	-20	1	10	14	·
CCc1nc(N)c(C#N)c(-c2ccccc2OC)c1C	3412	9.1	8	0	·	·	-6
CN(CC(=O)Nc1ccccc1Br)CC(=O)Nc1ccccc1C(F)(F)F	3708	3.3	-18	8	2	-7	-10
Cc1ccc(S(=O)(=O)NCC(C)NS(=O)(=O)c2ccccc2[N+](=O)[O-])cc1 (stereo not drawn)	4127	15	-25	8	1	5	6
CCc1ccc(OCC(=O)N/N=C(\C)c2ccc3c(c2)OCCO3)cc1	2438	·	-19	·	·	·	-16
CCC(=O)N1N=C(c2ccc(NS(=O)(=O)c3ccccc3)cc2)CC1c1ccco1 (stereo not drawn)	5754	12	-2	14	3	13	·
COc1ccc(CNC(=O)CN2CCC(n3nnc4cc(F)ccc43)CC2)cc1	4297	1.6	-15	-1	10	5	1
COc1ccc(C2NC(=O)CS2)cc1OC (stereo not drawn)	3145	4.8	-2	1	·	·	-2
O=C(CCN1C(=O)/C(=C\c2ccccc2)SC1=S)N1CCOCC1	3781	4.8	-14	-1	20	17	-2
Cc1ccc(C(=O)N2CC3(C)CN(C(=O)c4ccc(C)cc4)CC(C)(C2)C3=O)cc1	2113	1.0	-28	2	0	-9	1
COc1cccc(CN2CCC(n3nccc3NC(=O)CCOc3ccccc3)CC2)c1O	4135	1.3	0	0	2	5	5
Cc1ccc(-c2nnn(CC(=O)N(Cc3cccs3)C(C(=O)NC3CCCC3)c3ccncc3)n2)cc1 (stereo not drawn)	13190	3.0	-34	9	-1	2	-4
Fc1ccc(NC(=S)N/N=C/c2ccc(F)c(F)c2)cc1	4174	·	-31	·	·	·	9
Cc1cccc(NC(=O)c2sc(Cl)nc2-c2ccccc2)c1	2249	2.9	-17	20	9	6	1
CCOc1ccc(OCC)c(NC(=O)CSc2nnc(-c3cccnc3)o2)c1	5891	-0.5	-8	-2	-4	12	·
COc1cccc(C2CC(c3cccs3)=NN2C(=O)CSC2=NCCS2)c1OC (stereo not drawn)	5322	-0.6	-1	2	-10	-3	0
Cc1cc(C(=O)CN2C(=O)NC(CCS(C)(=O)=O)C2=O)c(C)n1C1CC1 (stereo not drawn)	?	4.5	-7	3	7	2	·
COc1ccc(C(=O)C2CCN(CC(=O)Nc3ccc(C)cc3)CC2)cc1	3107	-2.4	-19	4	-6	-16	-9
O=C(c1ccccc1NS(=O)(=O)c1ccc(F)cc1)N1CCc2ccccc21	2939	16	2	-4	0	1	9
O=C(Nc1ccc(OC(F)F)cc1)c1ccccn1	5005	·	-34	·	·	·	3
CC(NC(=O)COC(=O)COc1ccc(C(=O)c2ccccc2)cc1)c1ccccc1 (stereo not drawn)	8322	0.0	10	0	3	32	·
Cc1ccc(CN(C(=O)Cc2cccs2)C(C(=O)NC2CCCC2)c2ccncc2)cc1 (stereo not drawn)	2009	1.5	-30	14	5	8	1
(more compounds)
SMILES	Autofluor counter	RN4220 kill	PrP 5UTR inh	ugtP null kill	Mtb hypoxia rep	Mtb hypoxia rep growth	BJeLR lethal
C[n+]1c(-c2ccccc2)cc(CCCCc2cc(-c3ccccc3)[n+](C)c(-c3ccccc3)c2)cc1-c1ccccc1	5631	93*	-23	77	8	12	·
O=NC1=C(c2c(O)[nH]c3ccccc23)CCCC1	9568	2.9	-25	1	12	10	-1
O=C(NCC1CCCO1)c1cc([N+](=O)[O-])ccc1N1CCC(Cc2ccccc2)CC1 (stereo not drawn)	4183	-0.7	-37	-2	6	-1	·
CCc1ccc(OCC(=O)OCC(=O)c2ccc3c(c2)NC(=O)CO3)cc1	11955	2.8	-24	-7	5	14	-10
Cc1cc(/C=C(/C#N)c2cccc(Cl)c2)c(C)n1C	8952	2.6	-20	7	8	1	6
Cc1ccc(NC(=O)Cn2c(=O)c3cccn3c3ccccc32)c(Cl)c1	4755	1.4	1	-5	6	3	-2
CC1(C)OC2C(COS(=O)(=O)O)OC(n3cc(Br)c(=O)[nH]c3=O)C2O1 (stereo not drawn)	·	2.4	·	3	14	8	·
C=C(C)C(=O)Nc1cccc(C2=NOC3(C2)C[C@H](C(N)=O)N(C(=O)CC)C3)c1 (stereo partly drawn)	3501	·	-31	·	·	·	3
Cc1c(Cl)c([N+](=O)[O-])nn1Cc1ccc(C(=O)N/N=C\c2cccc(Br)c2)o1	2635	·	-27	·	·	·	5
O=C(CCC1CCCN(C(=O)c2ccc3c(c2)OCCO3)C1)NCc1ccccc1F (stereo not drawn)	4171	0.8	-10	7	13	3	-12
COc1ccc(CCC(=O)Nc2nnc(C(C)(C)C)s2)cc1	3727	3.8	-24	-4	-5	1	1
Cn1c(=O)[nH]c(=O)c2c1nc(NCc1ccccc1)n2CC(O)c1ccccc1 (stereo not drawn)	2855	0.2	-5	-1	·	·	7
Nc1nc(Nc2ccc(Cl)cc2)c(NC=O)c(=O)[nH]1	3882	1.6	·	5	1	4	2
O=C(CCNS(=O)(=O)c1cccc2nsnc12)Nc1ccc2c(c1)OCCO2	3598	7.0	-13	-7	10	8	5
CSc1nc(C)cc(OCCNS(=O)(=O)c2cc(C)ccc2C)n1	3271	-2.9	-13	-5	-9	3	-1
Cc1n[nH]c(C)c1CCCOc1ccccc1	3239	-1.3	-6	-8	5	0	0
CCCn1c(NC(=O)C2CCN(C(=O)c3ccccc3C)CC2)nc2ccccc21	4547	-1.1	-1	5	-3	-7	-17
O=C(CNC(=O)c1ccccc1)OCC(=O)N1c2ccccc2Sc2ccccc21	2178	7.4	-2	10	16	10	6
COc1ccc(C2(CNC(=O)c3cccc([N+](=O)[O-])c3)CCOCC2)cc1OC	1992	0.4	-15	0	8	-6	-1
COc1ccccc1NC(=O)Nc1ccccc1C(=O)NCCCN1CCOCC1	3607	1.6	-26	1	-4	-5	1
CC1CCc2cc(F)cc3c(O)c(C(=O)NCc4ccco4)c(=O)n1c23 (stereo not drawn)	3899	5.5	-16	-1	-12	-8	6
Nc1cc(=O)[nH]c(SCC(=O)c2ccc(O)cc2O)n1	3789	3.8	·	4	-2	6	5
CCc1ccccc1NC(=O)N1CCC(NC(=O)C(Cc2ccccc2)NC(C)=O)CC1 (stereo not drawn)	4078	4.1	-13	11	-3	-1	-3
CC(=O)Nc1sc(C)c(C)c1C(=O)OCC(=O)NCc1ccc(F)cc1	4059	3.0	-13	1	6	1	·
Cc1cccc(N2CCN(C(=O)CN3C(=O)NC(C)(C)C3=O)CC2)c1C	4961	5.0	-34	8	-5	7	-12
COc1ccc(C2CC(=O)C=C(c3cccc4c3Oc3ccccc3S4)C2)cc1 (stereo not drawn)	·	-1.3	·	11	8	7	·
O=C(Cn1cncn1)NCc1cc(F)ccc1F	4434	5.2	-13	3	-4	7	-10
O=C(c1ccc(-n2ccnc2)cc1)N1CCCC(CO)(Cc2cccc(Cl)c2)C1 (stereo not drawn)	6342	1.0	-12	7	-8	-11	3
COc1ccc(C=NNC(=O)CN(c2ccc(OC)cc2)S(=O)(=O)c2ccccc2)cc1	·	3.9	·	7	0	-6	·
O=C1CC(c2cccs2)Sc2nc3ccccc3n21 (stereo not drawn)	4624	5.0	-121	-1	3	3	4
COc1ccc(N2CCN(c3nc4ccccc4nc3NS(=O)(=O)c3ccccc3)CC2)cc1	3543	17	-2	2	·	·	3
CC(=O)N1CCC2(CC1)C(C#N)=C(N)Oc1n[nH]c(CSc3ccc(C)cc3)c12	8122	2.9	-11	-2	1	3	5
CS(=O)(=O)c1sc2nc(-c3ccccc3)cc(-c3ccccc3)c2c1N	3178	-8.2	-23	-8	·	·	-4
